From PubChem BioAssay
Vif TR-FRET: inhibitors of Vif binding to APOBEC3G peptide, primary screen, biochemical, TR-FRET, GST-Vif 1-94, biotin-A3G peptide, dose response retest (AID 1117319). Virion infectivity factor (Human immunodeficiency virus type 1 group M subtype B (isolate …. one-dose inhibition, %; IC50 in µM for titrated hits. actives 0.57% (n = 260,000). TR-FRET GST-Vif / biotin-A3G peptide binding; higher % means a stronger effect; test concentration not given here; strong numbers were not always called active;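 active means above the screen mean plus three standard deviations and confirmed in dose response; inconclusive means results disagree or hit not tested in dose response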;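 further: Vif residues 1-94 fused to GST binding biotinylated APOBEC3G peptide 110-148; 0% = full assay without inhibitor and 100% = GST in place of GST-Vif; retest series ran down from 100 µM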
ALR inh: inhibitors of human ALR sulfhydryl oxidase, primary screen, biochemical, H2O2 detection, HRP-luminol luminescence, single point; FAD-linked sulfhydryl oxidase ALR (Homo sapiens), P55789; purified ALR, DTT oxidation; inhibition, % (no concentration beside the values); actives 3.8% (n = 290,000); AID 485317, 2010;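 active means mean and each replicate at 75% or more; inconclusive means only one of the two met; inactive means neither met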;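 further: stock transfer was 7.5 nL into about 7.5 µL; 0% = neutral wells and 100% = wells with inactivated enzyme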
Target sequence (P55789 whole entry, looked up): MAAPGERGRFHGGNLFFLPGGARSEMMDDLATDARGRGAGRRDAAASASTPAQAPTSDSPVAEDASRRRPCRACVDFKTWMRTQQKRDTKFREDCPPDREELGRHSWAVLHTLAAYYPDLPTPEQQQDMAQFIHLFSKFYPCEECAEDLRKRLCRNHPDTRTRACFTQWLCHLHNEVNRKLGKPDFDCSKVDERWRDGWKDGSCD
FGF22 binding: binders of human FGF22 protein, primary screen, FGF22 synaptogenesis inhibitor project, biophysical, thermal shift, single point | actives 1.5% (n = 340,000) | AID 651658, 2012 | calls only at 9.99 µM | recombinant FGF22 thermal shift, SYPRO orange fluorescence; percent of sucrose octasulfate shift, DMSO zero;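 active means melting point raised past a set limit in the mean and every replicate; inconclusive means no clear call; three in four hits are not shown here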
Target sequence (Q9HCT0 whole entry, looked up): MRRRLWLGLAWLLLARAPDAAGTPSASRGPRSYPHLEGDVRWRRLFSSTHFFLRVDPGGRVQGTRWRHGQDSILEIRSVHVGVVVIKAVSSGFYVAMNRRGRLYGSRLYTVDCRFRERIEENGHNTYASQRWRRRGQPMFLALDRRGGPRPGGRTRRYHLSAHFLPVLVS
rRNA inh HTS: reduced GFP signal of wild-type E. coli, primary screen, bacterial rRNA inhibitor project, GFP/RFP fluorescence, OD600, single point; actives 1.6% (n = 350,000); E. coli WT GFP vs humanized-ribosome RFP mutants, 24 h; active compounds read low; DMSO median 0, no signal -100; GFP signal change (wild-type ribosome), % (test concentration not listed);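 active means significant combined selectivity score with lowered wild-type GFP, culture density cut under 30%, mutant RFP and density less affected; inactive means any of these conditions unmet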; further: one replicate is shown; some compounds called inactive have numbers as strong as hits
Ecoli growth: E. coli growth inhibition, primary screen, OD600 | Escherichia coli growth, 23 h; active compounds read low | OD600 absorbance (concentration not given with the values) | actives 0.21% (n = 330,000) | AID 1053175, 2014;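 active means OD600 absorbance below the run mean of sample wells minus 3.6 SD, in any replicate, cut at about 0.56 in these data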;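 further: stock transfer was 300 nL into about 60 µL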
AF4-AF9 inh: inhibitors of AF4 peptide binding to AF9, primary screen, biochemical, AlphaScreen, biotin-AF4 peptide, FLAG-AF9, single point; inhibition, % at 10 µM; Protein AF-9 (Homo sapiens), P42568; actives 0.47% (n = 350,000);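 active means every replicate reaching a set inhibition limit, whatever the replicate mean, cut at about 25% in these data; inconclusive means mean inhibition reaches that limit but some replicates miss it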;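 further: 0% = plate neutral control median and 100% = total signal loss; the record names both 10 and 1 µM as test concentration; the first replicate is given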
HNF4A DNA FP: change in binding of human HNF4A to DNA, primary screen, biochemical, fluorescence polarization, FITC-DNA; Hepatocyte nuclear factor 4-alpha (Homo sapiens), P41235; actives 0.3% (n = 360,000); activity change, % at 10 µM; 1 h; in the data active means activity change above about 30%, passing the limit was not always enough;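 further: controls were the assay level and a saturating level of protein; the project sought stronger binding though the title names inhibitors; some compounds called inactive have numbers as strong as hits; positive values seem to mean higher polarization but the record does not say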
Target sequence (P41235 whole entry, looked up): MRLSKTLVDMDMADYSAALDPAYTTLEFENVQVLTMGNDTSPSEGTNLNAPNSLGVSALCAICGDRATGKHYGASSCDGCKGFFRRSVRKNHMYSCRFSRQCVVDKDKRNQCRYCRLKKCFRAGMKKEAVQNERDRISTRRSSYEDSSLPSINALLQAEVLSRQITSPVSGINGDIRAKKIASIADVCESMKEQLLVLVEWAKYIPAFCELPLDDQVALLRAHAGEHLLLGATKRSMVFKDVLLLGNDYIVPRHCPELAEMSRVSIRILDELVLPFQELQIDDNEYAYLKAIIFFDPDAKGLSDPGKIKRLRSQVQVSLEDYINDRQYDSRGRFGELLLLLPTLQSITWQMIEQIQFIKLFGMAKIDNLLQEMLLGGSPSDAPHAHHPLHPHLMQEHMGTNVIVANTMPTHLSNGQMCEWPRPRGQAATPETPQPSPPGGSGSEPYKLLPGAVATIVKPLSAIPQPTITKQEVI
rRNA inh HTS OD600: further read-out of rRNA inh HTS, marked with its call; OD600 change, %; measured here: OD600 growth;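 optical density of the mix in the first replicate; 0 = DMSO median and -100 = no signal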
rRNA inh HTS RFP: further read-out of rRNA inh HTS, marked with its call; RFP signal change, %; measured here: RFP humanized mutant strains;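 first replicate; 0 = DMSO median and -100 = no signal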
* marks the source's active call; other numbers are inactive results; i = inactive; ? = inconclusive; . = not tested or not shown; + = active, no number; & = joins results of further samples.

SMILES	Vif TR-FRET	ALR inh	FGF22 binding	rRNA inh HTS	rRNA inh HTS OD600	rRNA inh HTS RFP	Ecoli growth	AF4-AF9 inh	HNF4A DNA FP
O=C(CCSc1ccccc1)NC(=O)COC(=O)c1ccc(OC(F)F)cc1	12%	1	i	-10	-9	-3.9	0.66	0.1	1.6
COCC#Cc1cnc2c(c1)C(=O)N([C@H](C)CO)C[C@@H](C)[C@@H](CN(C)C(=O)c1ccc(F)cc1)O2	.	.	i	1	4	-2.4	.	-2.3	.
Cc1cccc(NC(=O)CCc2c(C)nc3ncnn3c2C)n1	6%	-2	.	.	.	.	0.65	.	2.6
Cc1ccc(S(=O)(=O)NCCS(=O)(=O)N2CCN(c3ccccc3)CC2)cc1	.	8	i	-3	-1	-1.1	0.7	0.4	3.1
O=S(=O)(c1cccs1)N1CCCCN2[C@H](C1)[C@@H](c1ccc(Br)cc1)[C@@H]2CO	.	.	i	-24	-65	-3.9	.	-1.9	.
CCN1CCN(CCC2Oc3cc([N+](=O)[O-])ccc3NC2=O)CC1 (centres undefined)	0%	3	i	26	18	3.2	0.7	-1.0	1.4
O=C(c1nc2ccc(Cl)cn2c1CN1CCC(O)CC1)N1CCc2ccccc2C1	3%	-1	i	4	8	0.9	0.7	1.1	-2.9
Cc1cc(C)c2c(n1)nn1c(-n3ccnc3)cc(C)nc21	-3%	.	.	.	.	.	0.69	.	1.1
CC1Cc2cc(/C(O)=C3/C(=O)C(=O)N(CCN4CCOCC4)C3c3cccc(Cl)c3)ccc2O1 (centres undefined)	0%	3	.	.	.	.	.	.	-1.4
CO[C@H]1CN(C)C(=O)c2cc(NC(=O)NC3CCCCC3)ccc2OC[C@@H](C)NC[C@H]1C	.	.	i	5	6	-2.1	.	-1.4	.
COc1ccc(N2Cc3ccccc3/C2=N\C(=O)Nc2ccccc2)cc1	-7%	3	i	24	-4	-1.2	.	3.9	2.9
O=C(NCC[C@@H]1CC[C@@H](NC(=O)C2CCC2)[C@H](CO)O1)c1ccc(F)cc1	.	.	i	1	3	-0.7	.	-2.6	.

An excerpt from above in order of their number in rRNA inh HTS RFP, highest first.
compound	Vif TR-FRET	ALR inh	FGF22 binding	rRNA inh HTS	rRNA inh HTS OD600	rRNA inh HTS RFP	AF4-AF9 inh
CCN1CCN(CCC2Oc3cc([N+](=O)[O-])ccc3NC2=O)CC1 (centres undefined)	0%	3	i	26	18	3.2	-1.0
COc1ccc(N2Cc3ccccc3/C2=N\C(=O)Nc2ccccc2)cc1	-7%	3	i	24	-4	-1.2	3.9
COCC#Cc1cnc2c(c1)C(=O)N([C@H](C)CO)C[C@@H](C)[C@@H](CN(C)C(=O)c1ccc(F)cc1)O2	.	.	i	1	4	-2.4	-2.3

Other compounds
SMILES	Vif TR-FRET	ALR inh	FGF22 binding	rRNA inh HTS	rRNA inh HTS OD600	rRNA inh HTS RFP	Ecoli growth	AF4-AF9 inh	HNF4A DNA FP
Cc1nn(CC(=O)Nc2ccc3c(c2)nc2n3CCN(C3CCCCC3)C2)c(=O)c2ccccc12	15%	-12	i	-10	-6	-11	0.7	-0.3	8.7
COc1cccc(CN(C(=O)c2cnccn2)C(C(=O)NC2CCCCC2)c2cc(OC)c(OC)c(OC)c2)c1 (centres undefined)	.	4	i	9	12	-2.2	0.68	0.7	0.3
COc1ccc(S(=O)(=O)Nc2ccc3c(c2)C(=O)N([C@H](C)CO)C[C@@H](C)[C@@H](CN(C)CC2CC2)O3)cc1	.	.	i	5	-3	-1.9	.	-7.3	.
CCCn1nc(C(=O)Nc2ccc3c(c2)OCCO3)c2ccccc2c1=O	-14%	-3	i	.	.	.	0.72	1.3	-1.4
Cn1c(CSCc2ccccc2)nnc1SCC(=O)Nc1ccc(C(=O)O)cc1	-1%	-3	i	12	2	-2.0	0.64	0.4	0.1
CCCC(C)NC(=O)COc1ccc(Sc2ccc(OCC(=O)NC(C)CCC)cc2)cc1 (centres undefined)	-4%	.	.	.	.	.	0.67	.	-4.5
Nc1nnnn1N=C1CCCCC1	?	-10	.	.	.	.	0.7	.	-0.6
Cc1csc(Nc2ccc(Cl)cc2)[n+]1-c1ccc(Cl)cc1	.	-3	i	-57	-78	-21	0.67	15	6.6
O=C(O)c1ccc2c(=O)n(-c3ccc(F)cc3)c(=S)[nH]c2c1	1%	-5	i	6	6	-6.9	0.7	-4.3	5.3
CCOC(=O)Cn1c(=O)oc2cc(S(=O)(=O)N3CCC(N4CCCCC4)CC3)ccc21	2%	1	i	8	10	1.1	0.71	2.3	0.9
O=C(O)c1ccc(C=NNC(=O)c2ccccc2NS(=O)(=O)c2cccs2)cc1	.	5	.	14	5	-0.5	0.71	-0.6	0.6
CCCn1nc(NC(=O)C(C)(C)C)c2cc3cc(OC)ccc3nc21	1%	.	i	5	13	0.5	0.64	-8.9	1.0
COc1ccc(C)cc1NC(=O)NNC(=O)C(C)Oc1ccc(F)cc1Cl (centres undefined)	.	5	i	4	5	1.2	0.69	-0.7	4.2
O=c1[nH]c(=O)n(-c2ccc(F)cc2)c2c1C(C(F)(F)F)(C(F)(F)F)N=C(c1ccc(F)cc1)N2	10%	-3	+	-41	-57	-15	0.65	-45	-3.2
N#Cc1cc(N)ccc1Sc1ccc(Cl)cc1	-3%	21	.	.	.	.	0.67	.	0.9
O=C(CN1CCN(c2nc(-c3ccccc3)cs2)CC1)NNC(=O)c1ccc(Br)cc1	-2%	0	.	.	.	.	0.66	.	-0.3
CC1CC(=O)Nc2ccccc2N1S(=O)(=O)c1ccc(Br)cc1 (centres undefined)	-2%	-2	.	.	.	.	0.71	.	4.0
O=C(Cn1c(=O)n(CC(=O)N2CCCCC2)c(=O)c2sccc21)NCc1ccccc1	.	-3	i	8	4	1.6	0.68	-1.1	0.2
CN(C)C(=O)c1ccc(-c2ccc3c(c2)[C@H]2[C@H](CCN2C(=O)c2ccccc2)[C@H](CO)N3)cc1	.	.	i	-4	7	1.1	.	-0.3	.
Cc1cccc(Oc2coc3cc(OC(=O)c4cncc(Br)c4)ccc3c2=O)c1	-1%	3	i	-18*	-0.2*	0.9*	0.69	-6.4&-2.2	2.6
COc1ccc(/C=N/Nc2nncn2N)cc1Br	3%	.	i	-11	0	-1.1	.	-0.5	3.0
Cc1ccc(NC(=O)C(=O)N2CCCC2)cc1Cl	3%	-12	i	8	2	-1.2	0.64	-0.4	0.4
Cc1ccccc1CN1[C@@H](C)[C@H](c2ccccc2)Oc2cccc(NCCc3ccccc3)c2S1(=O)=O	.	.	i	25	22	5.4	.	-1.8	.
COc1ccc(N2C(=O)CC(N(CCc3ccccc3)C(=O)c3ccccc3)C2=O)cc1 (centres undefined)	?	-3	i	-10	-7	-3.5	0.72	-2.6	1.3
Cc1nc(Cl)c2c(n1)NC(=O)CO2	1%	-1	i	2	6	-1.1	0.69	-0.9	-1.5
CN(C(=O)c1ccc(Br)o1)C1CCCCC1	.	-3	i	0	1	3.4	0.7	-1.2	-0.3
CCCCOCCCNC(=O)C[C@@H]1C[C@@]2(C(=O)OCC)CCCC=C2N(Cc2cccc3ccccc23)C1=O	.	.	i	.	.	.	.	1.2	-2.4
CC(=O)Nc1ccc(C(=O)N2CCN(C(=O)c3ccco3)CC2)cc1	4%	-6	i	19	8	-4.8	0.65	0.2	3.4
Nc1nc(SCC(=O)OCc2ccccc2)[nH]c(=O)c1NC(=O)c1ccco1	71%	100*	i	3	2	-0.9	0.69	-6.9	-0.7
CCCN1C[C@@H](C)[C@@H](OC)CN(C)C(=O)c2cc(NC(=O)c3ccc(F)cc3)ccc2OC[C@@H]1C	.	.	i	1	-3	-1.4	.	-0.8	.
O=C(CN1CCCCC1)Nc1ccccc1Cl	.	-8	i	9	8	2.4	0.7	3.6	2.5
COc1ccc2c3c(n(C)c2c1)[C@@H](CO)N(Cc1ccccc1OC)CC31CCN(C)CC1	.	.	i	2	11	0.3	.	26*	.
COc1ccc(-c2ocnc2C(=O)Nc2ccccc2N2CCCCC2)cc1	-6%	48	.	.	.	.	0.68	.	0.9
CC(=O)Nc1ccc(S(=O)(=O)N2C(C)CCCC2C)cc1 (centres undefined)	2%	-15	i	1	3	-0.9	0.69	0.8	0.1
Cc1ccccc1C(=O)NCC(=O)N1CCN(C/C=C/c2ccccc2)CC1	.	0	i	9	13	-0.4	0.7	-6.0	2.9
C[C@H]1CN([C@@H](C)CO)C(=O)c2cc(-c3ccc(C#N)cc3)cnc2O[C@@H]1CN(C)Cc1ccccn1	.	.	i	5	8	-2.8	.	-8.5	.
S=C1NCN(C2CCCCC2)CN1CCc1ccccc1	7%	.	i	.	.	.	0.64	-2.0	-0.2
COc1ccc(C(=O)NCc2ccco2)cc1S(=O)(=O)NC1CC1	5%	1	i	-3	-12	3.1	0.7	2.3	-0.2
O=c1cc(-c2ccc(Cl)cc2)oc(=O)[nH]1	-2%	-1	i	.	.	.	0.66	0.4	-1.2
CC(C)Cc1nnc(NC(=O)CCc2ccccc2)s1	3%	-10	i	3	0	0.9	0.66	0.3	3.4
Cc1cccc(C(=O)OCC(=O)NN2C(=O)NC3(CCCCC3)C2=O)c1	4%	-2	i	.	.	.	0.69	-3.7	0.3
CC1CCCCN1C(=O)CSc1nnc2c(n1)[nH]c1ccccc12 (centres undefined)	-8%	-2	i	2	14	-1.0	0.69	-2.4	3.8
CCOC(=O)C1CCN(CC(O)COc2ccc(C(C)(C)C)cc2)CC1 (centres undefined)	-5%	-24	.	.	.	.	0.65	.	-3.4
COc1ccc2c3c(n(C)c2c1)[C@H](CO)N(Cc1ccncc1)CC31CN(C(=O)Cc2ccncc2)C1	.	.	i	3	6	-3.8	.	2.6	.
O=C(O)Cc1c(-c2ccccc2)c2cc(Br)ccc2[nH]c1=O	-5%	3	i	12	3	6.6	0.7	-5.8	0.0
CN(CC(=O)Nc1ccccc1Cl)C(=O)COC(=O)c1ccc([N+](=O)[O-])s1	.	-46	i	-1	1	3.9	0.65	1.9	3.7
CCC(CC)NC(=O)Nc1ccc(F)cc1F	73%	-13	i	2	17	10	0.71	-0.8	5.9
O=C(Nc1cc(Cl)cc(Cl)c1)N[C@@H]1CC[C@H](CCNS(=O)(=O)c2cccc(F)c2)O[C@@H]1CO	.	.	i	-57	-78	-14	.	1.3	.
Cc1nc(Cl)c(C(=O)NCc2ccccc2)c(C)c1[N+](=O)[O-]	6%	2	i	7	15	-0.5	0.65	-0.1	-0.5
CCCNC(=O)Cn1c(=O)oc2cc(S(=O)(=O)N3CC(C)CC(C)C3)ccc21 (centres undefined)	.	-3	i	1	-3	-0.7	0.7	-0.3	4.0
CCOC(=O)C1(CCc2ccccc2)CCN(Cc2ccc(C(=O)OC)cc2)CC1	.	.	i	-9	-11	1.3	0.61	0.9	-3.4

Single values from the list.
Ecoli growth with CCCNC(=O)Cn1c(=O)oc2cc(S(=O)(=O)N3CC(C)CC(C)C3)ccc21 (centres undefined) = 0.7
ALR inh with CC1CCCCN1C(=O)CSc1nnc2c(n1)[nH]c1ccccc12 (centres undefined) = -2
rRNA inh HTS with O=C(O)Cc1c(-c2ccccc2)c2cc(Br)ccc2[nH]c1=O = 12

The list is partial; count on the stated rates, not on these rows.
